# Screens: PubChem, ICCB-Longwood Screening Facility, Harvard Medical School
# Bm FixLJ act – activators of Burkholderia fixLJ two-component system; B. multivorans fixK-promoter GFP reporter, 18 h; hits give high values; z-score (no concentration beside the values); actives 0.3% (n = 29,000);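 active = replicate mean overnight rise in green fluorescent reporter signal, 3 or more SD over negative controls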;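 also: score is relative to vehicle wells of the plate; 300 nL library stock went into each well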
# Starred values were filed as active, the others as inactive; & = joins results of further samples.
SMILES,Bm FixLJ act
Cc1c(CCNC(=O)N(C)CC(O)CO)c2cccc3c2n1CCC3 (stereo not given),1.3
COc1cc2oc(=O)c(CC(=O)N3CCCCC3)c(C)c2cc1Cl,-1.9
CC(=O)c1ccc(NC(=O)C2CCCN(S(=O)(=O)c3ccc(Br)s3)C2)cc1 (stereo not given),3.2*
CCOc1ccccc1NC(=O)c1cc2c(=O)[nH]c3ccccc3c2s1,-0.71
COc1ccc(Cl)cc1NC(=O)Cn1nnc2sc(-c3ccccc3)cc2c1=O,0.79
COCCn1c(=O)[nH]c2cc(C(=O)Nc3cccc(C(C)=O)c3)ccc2c1=O,-1.2
Cc1ccc2ncc(C(=O)NCc3ccccc3Cl)c(=O)n2c1,-0.69
Cc1ccc(-n2c(=O)c3c4c(sc3n(Cc3ccccc3F)c2=O)CCC4)cc1C,1.2
COc1ccc(C(=O)c2oc3ccccc3c2NC(=O)c2cc(=O)c3ccc(C)cc3o2)cc1Cl,-1.7
Cc1ccccc1-c1nc(CS(=O)(=O)CC(=O)Nc2cccc(C(F)(F)F)c2)c(C)o1,1.2
Cc1ccc(-n2c(=O)c3c4c(sc3n(Cc3cccc(Cl)c3)c2=O)CCC4)cc1C,0.95
CCOC(=O)c1cc(OC(=O)c2ccccc2OC)n(-c2ccccc2)n1,-1.9
CCOc1ccc(NC(=O)CSc2oc(-c3cccs3)nc2S(=O)(=O)c2ccc(Cl)cc2)cc1,-2.2
CC1(C)O[C@@H]2[C@@H](CO[C@@]3(COS(N)(=O)=O)OC(C)(C)O[C@@H]23)O1,-2
CCn1c(CN(C)C)nnc1C1CCN(c2ccnc(N)n2)CC1,-1.9
COCC(c1ccccn1)N(C)C(=O)c1cn[nH]c1C1CCCCC1 (stereo not given),-4.1
CCCCn1cc(S(=O)(=O)c2cc(C)ccc2C)c(=O)c2cc(F)c(F)cc21,-1.7
Cc1cccc(Cc2c(C)nc3nc(SCC(=O)NCc4ccc(F)cc4)nn3c2C)c1,-0.88
Cn1nc(C(N)=O)c2c1CCN(C(=O)NCCCn1ncc3ccccc31)C2,-0.05
Cc1nc(C2CCN(C(=O)NCCn3nc(C)c(C)c3C)CC2)n[nH]1,-1.9
CC(C)C(=O)Nc1cccc(NC2=NS(=O)(=O)c3ccccc32)c1,-1.7
Nc1cc(=O)nc(SCC(=O)Nc2cccc(Cl)c2)n1CCc1ccccc1,-0.59
CCCOCCNC(=O)c1cc(Cn2cnc3ccccc32)[nH]n1,0.61
CC1(C)Cc2c(c(N3CCOCC3)nc3sc(C(=O)Nc4ccc(Cl)cc4)c(N)c23)CO1,-0.38
Cc1oc(-c2ccccc2F)nc1CSCC(=O)N1CCN(c2ccccc2)CC1,-0.95
Cc1cc(=O)n2nc(N3CCC(C(=O)Nc4c(C)cccc4C)CC3)sc2n1,1.2
COc1ccc(C)cc1NC(=O)Cn1cc(S(=O)(=O)N2CCC(C)CC2)c2ccccc2c1=O,0.79
CCOCC(=O)N1CCC(C(=O)N2CC(Oc3ccccc3F)C2)CC1,0.41
O=C(CCN1CCCCCC1=O)Nc1ccc(Oc2nn[nH]n2)cc1,-1.5
COC(=O)c1cc2oc(C)cc2n1Cc1ccccc1Cl,-1.8
Cc1ccccc1-c1nc(CS(=O)(=O)CC(=O)NCc2cccc(Cl)c2)c(C)o1,0.07
COc1nc(C)c(C(=O)N2CCN3CCN(C)C(=O)C3C2)s1 (stereo not given),1.4
COc1ccc(OC)c(CCNC(=O)c2cc3c(=O)n(C)c4ccccc4c3n2C)c1,-0.24
COc1ccc(CCNC(=O)c2ccc3c(c2)N(Cc2ccccc2F)C(=O)c2ccccc2S3=O)cc1OC (stereo not given),0.6
CC(=O)N1CCC(C(=O)N2CC(C(=O)O)C(c3ccccc3)C2)CC1 (stereo not given),-0.35
O=C(NCCCc1nc2ccc(Cl)cc2[nH]1)C1CC2C=CC1C2 (stereo not given),-1.8
CCN(CCCNC(=O)Cn1ncc2c3ccccc3n(C)c2c1=O)c1cccc(C)c1,-2
CCOc1ccc(CN2C(=O)c3ccccc3Sc3ccc(C(=O)N4CCC5(CC4)OCCO5)cc32)cc1,-0.85
Cc1cccc(C(=O)NCc2nnc(SCC(=O)Nc3ccccc3F)n2-c2ccccc2)c1,0.25
CC=CCC(=O)NC1CN(C)S(=O)(=O)c2ccsc21 (stereo not given),-2
CC(=O)NCCNc1nc2c(-c3ccc(C)cc3)nnn2c2ccccc12,-0.72
COc1cccc(N2CCN(C(=O)Cn3nc(C)n4c(cc5c(OC)cccc54)c3=O)CC2)c1,-1.6
Cc1cccc(-c2noc(CN(C3CCCCC3)S(=O)(=O)c3ccc(F)cc3)n2)c1,-0.63
CCCCCn1c(CCCNC(=O)c2ccccc2OC)nc2ccccc21,-0.12
Cc1cc(Cl)ccc1OCC(=O)N(Cc1ccc(N(C)C)cc1)C1CCS(=O)(=O)C1 (stereo not given),-3.8
Cc1nnc(NCc2ccc(Cl)cc2)c2c1nnn2Cc1ccc(F)cc1,-1.4
O=C(NCCN1CCN(c2cccc(Cl)c2)CC1)Nc1ccccc1C(F)(F)F,-0.62
CC(C)Cc1noc(C(C)NC(=O)c2nc(Cl)n(C)n2)n1 (stereo not given),0.63
CCCCC(=O)OC1=C(C(=O)c2ccccc2)N(CCC)S(=O)(=O)c2ccccc21,-0.57
Cc1cc(CC(C)NC(=O)N2CCN(c3ccc(Cl)cn3)CC2)n[nH]1 (stereo not given),-0.37
Cc1[nH]nc(CCC(=O)NCc2ccc3c(c2)CCCO3)c1C,0.1
Oc1cccc(-c2nc(-c3cccs3)c(-c3cccs3)[nH]2)c1,-2.2
COC(=O)CC1Oc2ccc(C)cc2-n2cc(-c3ccc(F)cc3)nc21 (stereo not given),-0.57
O=C(Nc1cccnc1)c1cc(-c2ccc(Cl)cc2)on1,0.32
Cc1ccc(Cl)cc1N1CCN(C(=O)COc2cc(=O)n(C)c3ccccc23)CC1,-0.26
CCOC(=O)c1cnc2ccc(Cl)cc2c1Nc1ccc(N2CCOCC2)cc1,-0.11
Cc1nc(C(C)NC(=O)C2CCN(C(=O)Cc3ccccc3)CC2)n[nH]1 (stereo not given),-0.65
CCN1C(=O)COc2cc(NC(=O)N(C)Cc3cc(C4CC4)on3)ccc21,0.32
CCOC(=O)c1cnc2c(ccc3ccccc32)c1Nc1ccc(OCC)cc1,-0.47
CCn1c(=O)cc(SCC(=O)NCc2ccccc2OC)c2ccccc21,-0.35

# Additional records
SMILES,Bm FixLJ act
Cc1cc2nc(-c3ccccc3)cc(N3CCCC(O)CC3)n2n1 (stereo not given),-2.3
Cc1cc(C(F)(F)F)n2nc(-c3ccc(Br)cc3)cc2n1,0.47
CCOC(=O)NNC(=O)C1CCC(C)CC1 (stereo not given),-1.5
O=C(NCCSc1ccccc1)N1CCC(Oc2ncccn2)CC1,-2.1
COc1ccccc1N(CC(=O)NCCSCc1cccc(Cl)c1)S(C)(=O)=O,0.02
O=C(CCCCn1c(=O)c2ccccc2n(Cc2cccc(Cl)c2)c1=O)NCc1ccc2c(c1)OCO2,-0.57
Cc1cc(CC2CN(Cc3c(CO)cnc(C)c3O)CC2O)n[nH]1 (stereo not given),-0.94
Cn1c(=O)c2c(-c3ccccc3Cl)n(Cc3ccc(Cl)cc3)cc2n(C)c1=O,-0.35
Cc1ccc2c(CC(=O)Nc3ccc(S(=O)(=O)N4CCCCC4)cc3)coc2c1,-0.9
CC(C)c1cc(C(=O)NC(c2cnc3ccccc3c2)C2CC(O)C2)n(C)n1 (stereo not given),-1.8
CCCN(Cc1cc2cc(C)ccc2[nH]c1=O)C(=O)c1cccc(Cl)c1,-2.1
COC(=O)c1cc2oc3ccccc3c2n1Cc1ccc(C)cc1,-0.09
Cc1ccc(CN2CCN(C(=O)CCc3cccnc3)C(C)C2=O)cc1 (stereo not given),-0.42
Cc1cccc(OCC(=O)N2CC(O)C(Cc3cc(C)[nH]n3)C2)c1 (stereo not given),-0.71
Nc1c(C(=O)Nc2ccc(OC(F)(F)F)cc2)nnn1Cc1ccccc1,-2.7
C[C@]12CCC(=O)C=C1C=C[C@@H]1[C@@H]2CC[C@@]2(C)[C@H]1CC[C@@]21CCC(=O)O1,-1.1
COc1cc2c(=O)n(Cc3ccccc3)c(=O)n(CC(=O)Nc3cc(C(F)(F)F)ccc3Cl)c2cc1OC,1.9
CCOC(=O)C1=C(CN2CCN(CC)CC2)NC(=O)NC1c1ccc(Cl)cc1 (stereo not given),-1.1
COCCNC(=O)Cn1c(=O)n(CCCCCC(=O)NCc2ccc3c(c2)OCO3)c(=O)c2sccc21,-1
CC[C@@H](CO)NC(=O)[C@@H]1C=C2c3cccc4c3c(cn4C)C[C@H]2N(C)C1,0.14&-1.4
Nc1nonc1-c1nc2ccccc2n1CC(=O)Nc1ccccc1C(=O)O,-1.3
Cc1cc(C)c(NC(=O)Cn2c(=O)n(Cc3ccc(C(=O)NCc4ccco4)cc3)c(=O)c3sccc32)c(C)c1,4.5*
O=C(CCCn1c(=O)c2ccccc2n(Cc2cccc(F)c2)c1=O)NCc1ccccc1Cl,0.78
COc1cc2c(C(=O)N(C)c3cc(Cl)ccc3OC)cn(CC(C)C)c(=O)c2cc1OC,-1.8

# Another view of part of the listing above.
Cc1cc(C(F)(F)F)n2nc(-c3ccc(Br)cc3)cc2n1
  Bm FixLJ act: 0.47

CC=CCC(=O)NC1CN(C)S(=O)(=O)c2ccsc21 (stereo not given)
  Bm FixLJ act: -2

Cn1c(=O)c2c(-c3ccccc3Cl)n(Cc3ccc(Cl)cc3)cc2n(C)c1=O
  Bm FixLJ act: -0.35

COCCNC(=O)Cn1c(=O)n(CCCCCC(=O)NCc2ccc3c(c2)OCO3)c(=O)c2sccc21
  Bm FixLJ act: -1

# Pulled by structure from above (6):
SMILES,Bm FixLJ act
CC[C@@H](CO)NC(=O)[C@@H]1C=C2c3cccc4c3c(cn4C)C[C@H]2N(C)C1,0.14&-1.4
COc1cc2c(C(=O)N(C)c3cc(Cl)ccc3OC)cn(CC(C)C)c(=O)c2cc1OC,-1.8
COc1cc2c(=O)n(Cc3ccccc3)c(=O)n(CC(=O)Nc3cc(C(F)(F)F)ccc3Cl)c2cc1OC,1.9
Nc1nonc1-c1nc2ccccc2n1CC(=O)Nc1ccccc1C(=O)O,-1.3
Cc1ccc(CN2CCN(C(=O)CCc3cccnc3)C(C)C2=O)cc1 (stereo not given),-0.42
O=C(CCCn1c(=O)c2ccccc2n(Cc2cccc(F)c2)c1=O)NCc1ccccc1Cl,0.78

# (listing goes on)
SMILES,Bm FixLJ act
COCc1cc(C)nc2sc3c(c12)NC(c1ccc(O)cc1)N(c1ccc(C)cc1)C3=O (stereo not given),-2.3
COc1ncc(CN(C)Cc2cnc(-c3ccccc3)s2)cn1,-0.23
COC(=O)c1cc2sccc2n1Cc1nc(-c2cccc(Br)c2)oc1C,-0.39
COc1ccc(-n2ccn3c(CC(C)(C)CC(=O)O)nnc3c2=O)cc1,-0.37
Cc1sc2c(c1C)c(=O)n(Cc1ccccc1)c(=O)n2Cc1ccc(F)cc1,-1.7
CN1CCC(C)(C(=O)NC2COCC2Cc2ccncc2)CC1 (stereo not given),0.34
Cc1ccc(C(=O)N2CCC(C(=O)NCC(CO)Cc3ccco3)CC2)cc1 (stereo not given),-3
CCc1ccc(S(=O)(=O)c2cn(C)c3cc(OC)c(OC)cc3c2=O)cc1,-0.62
CC(=O)OCC(=O)[C@@]1(O)CC[C@H]2[C@@H]3CCC4=CC(=O)CC[C@]4(C)[C@H]3[C@@H](O)C[C@@]21C,-2.1
Cc1ccc(-n2c(SCC(=O)O)nc3sc4c(c3c2=O)CCCC4)cc1,0.5
Cc1cccc(Cn2c(=O)n(CCc3ccccc3)c(=O)c3c(C)c(C)sc32)c1,-0.88
COc1ccc(N(C(=O)c2ccc(C)cc2)S(=O)(=O)c2ccc(Cl)cc2)cc1,1.4
CCc1nnc(NC(=O)c2nc(SCc3ccc(F)cc3)ncc2Cl)s1,-0.43
Cc1cccc(N2CCN(C(=O)C(C)n3nc(C)n4c(cc5occc54)c3=O)CC2)c1C (stereo not given),-1.5
CCC(C)NC(=O)c1csc2c1CCN(Cc1c(C)noc1C)C2 (stereo not given),-2.5
COc1ccc(C(=O)NCCOCCO)cc1Oc1cccc(OC)c1CN,0.38
CC1CCCN(CCCNC(=O)c2ccc3c(c2)N(Cc2ccccc2F)C(=O)c2ccccc2S3(=O)=O)C1 (stereo not given),0.63
COc1ccc(N2CCN(C(=O)c3ccc4c(Cl)c5c(nc4c3)CCCC5)CC2)cc1,0.14
Cc1ccc(N(CC(=O)Nc2ccc(Br)c(C)c2)S(=O)(=O)c2cccs2)cc1,0.16
COCCNS(=O)(=O)c1cc(C(=O)O)cc(-c2ccccc2CN(C)C)c1,-0.96
Cc1ccnn1CC(=O)N1CCC2(CCC(=O)N(CCCO)C2)CC1,0.47
CCC1CN(C(=O)C2(S(=O)(=O)c3ccccc3)CC2)CC[C@@]1(C)O (stereo not given in full),-0.15
Cc1ccc(NC(=O)CSc2nc(C)c(Cc3ccccc3)c(=O)[nH]2)cc1,-1.5
CC(c1ccc(-c2ccc3sc(N)nc3c2)cc1)N1CCOCC1 (stereo not given),0.25
O=S(=O)(c1ccccc1)N1CCC(c2nccn2CC2CC2)CC1,0.75
Cc1cccc(NC(=O)Cn2c(C(F)(F)F)nc3ccccc32)c1C,-0.22
CCCOc1ccc(C(=O)N2CC(O)C(Cc3cnccn3)C2)cc1 (stereo not given),-0.36
CCOc1ccc(NC(=O)Cn2c(=O)n(CCCC(=O)NCc3ccc4c(c3)OCO4)c(=O)c3ccccc32)cc1,-0.89
CCOC(=O)c1c(-c2ccccc2)oc2ccc(NS(=O)(=O)c3ccc(C(C)C)cc3)cc12,-0.75
CCCN1CCN(CCCNC(=O)c2cc3c(=O)n(CC)c4ccccc4c3s2)CC1,-2.7
COc1cc(NC(=O)Cn2ncc3c(=O)oc4ccccc4c32)cc(OC)c1OC,-0.34
COC(=O)c1c(NC(=O)COc2ccccc2Cl)sc2c1CCC(C(C)(C)C)C2 (stereo not given),0.86

# The list is partial; the hit share may differ from the screen's.
